MLL AF4-AF9 inh – MLL-AF4/AF9 protein interaction inhibition; P42568; AlphaScreen, biotin-AF4 peptide binding to FLAG-AF9; inhibition, % at 10 µM; hit rate 0.47% among 350,000; AID 651704;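 active = every replicate reaching a set inhibition limit, whatever the replicate mean, cut at about 25% in these data; inconclusive = mean inhibition reaches that limit but some replicates miss it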;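 note: 0% = plate neutral control median and 100% = total signal loss; the record names both 10 and 1 µM as test concentration; the first replicate is given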
Target sequence (P42568 whole entry, looked up): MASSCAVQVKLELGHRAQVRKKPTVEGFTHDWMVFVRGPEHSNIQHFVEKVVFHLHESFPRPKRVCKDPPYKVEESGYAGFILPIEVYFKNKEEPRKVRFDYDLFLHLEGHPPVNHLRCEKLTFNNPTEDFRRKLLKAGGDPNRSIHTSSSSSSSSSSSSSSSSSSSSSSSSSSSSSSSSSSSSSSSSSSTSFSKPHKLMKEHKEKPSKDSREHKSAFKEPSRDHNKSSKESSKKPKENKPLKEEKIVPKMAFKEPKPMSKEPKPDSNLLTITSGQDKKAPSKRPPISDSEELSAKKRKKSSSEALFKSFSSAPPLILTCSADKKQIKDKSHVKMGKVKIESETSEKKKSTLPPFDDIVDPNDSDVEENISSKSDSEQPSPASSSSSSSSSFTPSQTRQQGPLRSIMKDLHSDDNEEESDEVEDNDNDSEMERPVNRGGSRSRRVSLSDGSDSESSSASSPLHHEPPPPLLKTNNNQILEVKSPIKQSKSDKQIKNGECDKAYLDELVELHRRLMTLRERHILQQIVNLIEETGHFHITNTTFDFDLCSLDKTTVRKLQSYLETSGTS
rRNA inh HTS – selective bacterial rRNA inhibition in E. coli; E. coli WT GFP vs humanized-ribosome RFP mutants, fluorescence, 24 h; active compounds read low; DMSO median 0, no signal -100; GFP signal change (wild-type ribosome), % (no concentration beside the values); hit rate 1.6% among 350,000; AID 720706;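 active = significant combined selectivity score with lowered wild-type GFP, culture density cut under 30%, mutant RFP and density less affected; inactive = any of these conditions unmet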; note: one replicate is shown; some compounds called inactive have numbers as strong as hits
rRNA inh HTS OD600 – recorded beside rRNA inh HTS, whose call it bears; OD600 change, %; measured here: OD600 growth;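 optical density of the mix in the first replicate; 0 = DMSO median and -100 = no signal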
rRNA inh HTS RFP – also measured in rRNA inh HTS; calls as there; RFP signal change, %; measured here: RFP humanized mutant strains;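 first replicate; 0 = DMSO median and -100 = no signal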
* = called active by the depositor; ? = inconclusive.

SMILES	MLL AF4-AF9 inh	rRNA inh HTS	rRNA inh HTS OD600	rRNA inh HTS RFP
Cc1ccc(C(=O)Nc2ccc3nc(C)sc3c2)o1	0.7	-2	8	-3.0
COCCNc1nc(NCCCN2CCCC2=O)c2sc(-c3ccccc3)cc2n1	2.9	-9	-6	1.9
O=C(Cc1csc2ccccc12)NCC1CC1	-2.6	9	4	-1.0
O=C(NC1CCC1)[C@@H]1[C@@H](CO)[C@@H]2Cn3c(ccc(C4=CCCCC4)c3=O)[C@H]1N2CC1CC1	-0.3	7	18	-1.3
COc1ccc(-c2ccc3n(c2=O)C[C@H]2[C@H](CO)[C@@H](C(=O)N(C)C)N(CC4CCOCC4)[C@@H]32)cc1	-0.9	-2	1	-0.8
CCCC(=O)N1CC2(C1)CN(Cc1nccs1)[C@H](CO)c1[nH]c3cc(OC)ccc3c12	3.2	1	7	4.0
C[C@H](CO)N1C[C@H](C)[C@H](CN(C)C(=O)NC2CCCC2)Oc2ncc(-c3ccccc3F)cc2C1=O	-6.0	-3	-1	-0.6
C[C@H]1CN([C@@H](C)CO)C(=O)c2cc(N(C)C)ccc2O[C@H]1CN(C)C(=O)Nc1ccc(F)cc1	-1.7	0	2	-3.6
c1ccc(COc2ncnc3c2ncn3CCCNCc2ccccn2)cc1	-2.0	10	9	2.5
CCc1nc2ccc(C(=O)NCCOc3ccc(OC)cc3)cn2c1N(CC)Cc1cccc(Br)c1	-1.0	-44	-55	-3.6
C[C@H](CO)N1C[C@H](C)[C@@H](CN(C)Cc2ccc(C(=O)O)cc2)Oc2ccc(NC(=O)Nc3cccc4ccccc34)cc2CC1=O	2.3	-1	-5	0.2
C[C@@H]1CN([C@@H](C)CO)S(=O)(=O)c2ccc(C#Cc3ccc(F)cc3)cc2O[C@@H]1CN(C)C(=O)NC1CCCC1	-4.2	-6	-3	0.6
CCC(=O)N1CC2(C1)[C@H](c1ccccc1)[C@H](CO)N2S(=O)(=O)Cc1ccccc1	1.9	0	6	0.3
C[C@H](CO)N1C[C@H](C)[C@@H](CN(C)Cc2ccc(Oc3ccccc3)cc2)Oc2c(NC(=O)Nc3cccc4ccccc34)cccc2C1=O	14	-8	-24	-2.7
C[C@@H]1CN([C@H](C)CO)S(=O)(=O)c2ccc(-c3cccc(C#N)c3)cc2O[C@@H]1CN(C)C(=O)C1CC1	1.1	-10	-4	0.7
CCOC(CNC(=O)c1[nH]c(C(F)(F)F)nc1-c1ccccc1)OCC	-7.2	-3	3	-0.1
O=C(c1ccccc1)N1C[C@H]2[C@@H](c3ccccc31)[C@H](CO)N2C(=O)c1ccccn1	-2.3	1	4	-0.1
C[C@H]1CN([C@@H](C)CO)C(=O)c2cc(NC(=O)NC3CCCCC3)ccc2O[C@H]1CN(C)C(=O)Nc1ccccc1	-8.4	1	4	-0.1
OC[C@H]1[C@H](c2ccccc2)C2(CN(Cc3ccncc3)C2)N1Cc1ccncc1	4.2	3	1	0.5
CO[C@@H]1CN(C)C(=O)c2cc(NS(=O)(=O)c3ccc(-c4ccccc4)cc3)ccc2OC[C@H](C)NC[C@H]1C	1.1	-5	-10	5.1
O=C(c1ccccc1)N1CC[C@@H]2[C@H](CO)Nc3ccc(C#CC4CCCCC4)cc3[C@@H]21	-3.2	3	14	2.6
CNc1cnc(-c2ccc(C(=O)N3CCOCC3)cc2)cn1	-3.7	10	14	-0.6
C[C@@H]1CN([C@H](C)CO)C(=O)c2cc(C3=CCCC3)cnc2O[C@H]1CN(C)C	-3.4	3	1	0.2
COc1ccc(S(=O)(=O)Nc2ccc3c(c2)C(=O)N([C@H](C)CO)C[C@@H](C)[C@@H](CN(C)C(=O)Nc2ccc(C(F)(F)F)cc2)O3)cc1	-2.6	-1	-5	-1.2
CCc1ccc2cc(C)cc(C)c2n1	-1.6	0	9	-2.6
COc1ccc2c3c(n(C)c2c1)[C@H](CO)N(Cc1ccccc1)CC31CN(S(C)(=O)=O)C1	6.1	-3	-19	2.5
Cc1noc(C)c1NC(=O)Nc1ccc2c(c1)C(=O)N([C@H](C)CO)C[C@H](C)[C@H](CN(C)C(=O)NC(C)C)OCCCC[C@@H](C)O2	-6.8	3	8	-1.7
O=C(NCC[C@H]1CC[C@@H](NS(=O)(=O)c2ccc(F)cc2)[C@@H](CO)O1)Nc1ccc(F)cc1	15	-5	-10	5.5
CCCC[C@@H]1Cc2[nH][nH]c(=O)c2[C@H](c2ccc3ccccc3c2)O1	-1.4	9	0	6.6
O=C(C[C@@H]1C=C[C@H](NC(=O)C2CC2)[C@H](CO)O1)Nc1ccccc1	0.2	-1	-1	-1.7
Cc1nc(C(F)(F)F)ccc1C(=O)N1CCC1(C)C(=O)Nc1ccc2c(c1)OCO2 (configuration not stated)	-0.6	14	24	0.4
C[C@@H]1CN([C@H](C)CO)C(=O)c2cc(NS(=O)(=O)c3cccs3)ccc2O[C@@H]1CN(C)C(=O)Nc1ccc2c(c1)OCO2	0.7	-1	0	-0.8
C[C@@H]1CN([C@@H](C)CO)C(=O)c2cccc(NC(=O)C3CCCCC3)c2O[C@H]1CN(C)C(=O)Nc1ccc(F)cc1	-1.8	-1	-3	-3.0
CCS(=O)(=O)N1CCCCN2[C@@H](CO)[C@H](c3ccc(-c4ccccc4F)cc3)[C@@H]2C1	2.4	2	-3	0.0
C[C@H]1CN([C@@H](C)CO)S(=O)(=O)c2ccc(-c3ccc(F)cc3)cc2O[C@@H]1CN(C)C(=O)Nc1ccccc1F	-1.5	-5	-8	2.3
C[C@@H]1CN([C@@H](C)CO)C(=O)c2cc(-c3cccnc3)cnc2O[C@H]1CN(C)C(=O)Nc1ccccc1	-2.5	0	5	-2.0
CC(=O)N1[C@H](CO)[C@H]2c3ccccc3N(S(=O)(=O)c3ccccc3)C[C@H]21	0.3	0	1	-2.2
CO[C@H]1CN(C)C(=O)c2ccc(NC(=O)c3ccccc3)cc2OC[C@H](C)N(C(=O)CN(C)C)C[C@H]1C	-3.8	-1	1	-2.6
CNC(=O)C[C@H]1CC[C@@H]2[C@H](COC[C@H](O)CN2C(=O)c2ccc3c(c2)OCO3)O1	-3.1	6	4	-5.2
C[C@H]1CCCCO[C@H](CN(C)S(C)(=O)=O)[C@@H](C)CN([C@@H](C)CO)C(=O)c2cc(NS(=O)(=O)c3ccccc3)ccc2O1	-2.5	-2	0	-0.9
CO[C@@H]1CN(C)C(=O)c2ccc(NC(=O)c3cccc(F)c3)cc2OC[C@H](C)NC[C@@H]1C	-2.2	1	4	-0.4
Cc1noc(C)c1NC(=O)Nc1ccc2c(c1)C(=O)N([C@H](C)CO)C[C@H](C)[C@@H](CN(C)C)O2	-2.4	10	13	0.1
OC(c1cccc(Cl)c1)c1nc(-c2csc3ccccc23)cs1 (configuration not stated)	-2.0	-26	-57	23
COC(=O)[C@@H]1[C@@H](CO)[C@@H]2Cn3c(ccc(-c4cccc(F)c4)c3=O)[C@@H]2N1S(C)(=O)=O	-0.1	-3	6	-1.4
CC(C)Nc1nc(Nc2ccc(C#N)cc2)c2sccc2n1	-1.5	-57	-80	-19
c1ccc(OCCNc2ccn3nc(-c4ccccc4)cc3n2)cc1	-1.1	-35	-41	-8.0
CO[C@H](CN(C)C(=O)Nc1ccc(F)cc1)[C@H](C)CN(Cc1ccccc1Cl)[C@@H](C)CO	1.3	-13	-6	-3.9
O=C(C[C@H]1CC[C@H]2[C@@H](COC[C@@H](O)CN2CC2CCCCC2)O1)NCc1ccc(Cl)cc1	1.9	-58	-72	-18
COc1ccc2c3c(n(C)c2c1)[C@H](CO)N(Cc1ccc(F)cc1)CC31CCN(CC2CCOCC2)CC1	0.1	-2	-25	1.0
Cc1ccc(S(=O)(=O)N(C)C[C@H]2Oc3ccc(NC(=O)NC(C)C)cc3CC(=O)N([C@@H](C)CO)C[C@@H]2C)cc1	1.8	-2	-3	2.1
CCC(=O)N1CCCCN2[C@H](CO)[C@H](c3ccc(-c4cccc(C(=O)N(C)C)c4)cc3)[C@@H]2C1	-5.1	6	1	-3.0
CC(C)N(C)c1ncnc2c1ncn2[C@H]1CN(Cc2ccncc2)C[C@@H](CO)O1	-1.4	11	16	-2.6
Cc1noc(C)c1NC(=O)Nc1ccc2c(c1)CC(=O)N([C@H](C)CO)C[C@H](C)[C@@H](CN(C)Cc1ccc3c(c1)OCO3)O2	0.3	4	-1	1.2
C[C@H](O)[C@@H]1CN2CCc3c([nH]c4ccccc34)[C@@H]2C[C@@H]1N(C)C(=O)c1ccco1	3.9	5	2	-0.3
C[C@H]1CN([C@@H](C)CO)C(=O)c2cccc(NC(=O)Nc3ccc4c(c3)OCO4)c2O[C@@H]1CN(C)Cc1ccc(Oc2ccccc2)cc1	2.6	0	1	1.3
O=C(Nc1ccccc1)[C@@H]1[C@@H](CO)[C@@H]2Cn3c(cccc3=O)[C@H]1N2Cc1ccncc1	-5.1	-5	-11	0.9
C[C@@H]1CN([C@@H](C)CO)C(=O)c2cccc(NS(=O)(=O)c3ccc(F)cc3)c2O[C@@H]1CN(C)Cc1ccc(C(=O)O)cc1	0.4	6	12	3.3
C[C@@H]1CCCCO[C@@H](CN(C)S(=O)(=O)c2ccccc2)[C@@H](C)CN([C@H](C)CO)C(=O)c2cc(NS(C)(=O)=O)ccc2O1	-2.0	-1	-2	1.1
CN1c2ccc(-c3ccccc3)cc2[C@H]2[C@H](CCN2C(=O)c2ccccc2F)[C@H]1CO	-4.4	-24	-51	29
Cc1cccc(C(=O)N2CCC[C@H]2C(=O)N2CCC[C@H]2C(=O)NCc2ccncc2)c1	-3.4	8	16	-2.1

Additional structures
SMILES	MLL AF4-AF9 inh	rRNA inh HTS	rRNA inh HTS OD600	rRNA inh HTS RFP
O=C(C[C@H]1C[C@@H]2c3cc(NC(=O)Nc4ccccc4F)ccc3O[C@@H]2[C@@H](CO)O1)NCCc1ccccc1	0.5	-3	-4	2.4
CCCNC(=O)N1CC2(CN(CC3CC3)C2)c2c([nH]c3cc(OC)ccc23)[C@H]1CO	?	2	3	4.2
COc1cccc(-c2cccc3c2NC(=O)C3(C)Cc2ccccc2F)c1 (configuration not stated)	5.1	3	-30	2.6
CC(C)c1ccc(CNC(=O)C2(C)CCCN2C)cc1 (configuration not stated)	1.1	8	14	0.0
C[C@H]1CN([C@@H](C)CO)C(=O)c2cc(NS(=O)(=O)c3cccs3)ccc2O[C@H]1CN(C)S(=O)(=O)c1cn(C)cn1	0.5	-2	-4	-2.3
COC(=O)C[C@H]1CC[C@@H]2[C@H](COc3ccc(NC(=O)c4ccccc4F)cc3C(=O)N2C)O1	-3.8	-1	2	1.9
CN(C)Cc1cn(CC[C@H]2CC[C@H](NS(=O)(=O)c3ccc(-c4ccccc4)cc3)[C@H](CO)O2)nn1	-0.5	0	-1	3.3
CCOC(=O)C1(C)CCCN(C(=O)c2cc(F)ccc2C)C1 (configuration not stated)	-0.5	14	26	1.6
C[C@H]1CN([C@@H](C)CO)S(=O)(=O)c2ccc(C#CC(C)(C)O)cc2O[C@@H]1CN(C)C	-1.5	3	-5	-3.6
Cc1noc(C)c1S(=O)(=O)Nc1ccc2c(c1)C(=O)N([C@H](C)CO)C[C@@H](C)[C@H](CN(C)Cc1ccc(Cl)c(Cl)c1)O2	0.1	-8	-17	2.7
N#C[C@H]1[C@@H](c2ccc(C#Cc3cccc(F)c3)cc2)[C@H](CO)N1C(=O)C1CCCC1	-3.2	2	4	1.0

Ordered by formula weight (ascending): part of the list above
SMILES	MLL AF4-AF9 inh	rRNA inh HTS	rRNA inh HTS OD600	rRNA inh HTS RFP
CCOC(=O)C1(C)CCCN(C(=O)c2cc(F)ccc2C)C1 (configuration not stated)	-0.5	14	26	1.6
COc1cccc(-c2cccc3c2NC(=O)C3(C)Cc2ccccc2F)c1 (configuration not stated)	5.1	3	-30	2.6
N#C[C@H]1[C@@H](c2ccc(C#Cc3cccc(F)c3)cc2)[C@H](CO)N1C(=O)C1CCCC1	-3.2	2	4	1.0
CCCNC(=O)N1CC2(CN(CC3CC3)C2)c2c([nH]c3cc(OC)ccc23)[C@H]1CO	?	2	3	4.2
CN1c2ccc(-c3ccccc3)cc2[C@H]2[C@H](CCN2C(=O)c2ccccc2F)[C@H]1CO	-4.4	-24	-51	29
Cc1cccc(C(=O)N2CCC[C@H]2C(=O)N2CCC[C@H]2C(=O)NCc2ccncc2)c1	-3.4	8	16	-2.1
CN(C)Cc1cn(CC[C@H]2CC[C@H](NS(=O)(=O)c3ccc(-c4ccccc4)cc3)[C@H](CO)O2)nn1	-0.5	0	-1	3.3
O=C(C[C@H]1C[C@@H]2c3cc(NC(=O)Nc4ccccc4F)ccc3O[C@@H]2[C@@H](CO)O1)NCCc1ccccc1	0.5	-3	-4	2.4
C[C@H]1CN([C@@H](C)CO)C(=O)c2cc(NS(=O)(=O)c3cccs3)ccc2O[C@H]1CN(C)S(=O)(=O)c1cn(C)cn1	0.5	-2	-4	-2.3
Cc1noc(C)c1S(=O)(=O)Nc1ccc2c(c1)C(=O)N([C@H](C)CO)C[C@@H](C)[C@H](CN(C)Cc1ccc(Cl)c(Cl)c1)O2	0.1	-8	-17	2.7

An excerpt; rates above refer to the full screens.
